# Screening data as filed in PubChem BioAssay.
# KCNQ2 block: KCNQ2 potassium channel inhibitors, primary screen, cell-based, CHO-K1, FluxOR thallium flux, B-score (AID 2156) | Potassium voltage-gated channel subfamily KQT member 2 (Rattus norvegicus), O88943 | 20 min; active compounds read low; only compounds with negative scores are shown here; some inactives read as strong as hits | B-score at 10 µM | 310,000 compounds, 1.1% hits;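 active means fluorescence ratio B-score at most minus 3 library SDs, with starting brightness B-score within 2 library SDs, cut at about -5.5 in these data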
# Target sequence (O88943 whole entry, looked up): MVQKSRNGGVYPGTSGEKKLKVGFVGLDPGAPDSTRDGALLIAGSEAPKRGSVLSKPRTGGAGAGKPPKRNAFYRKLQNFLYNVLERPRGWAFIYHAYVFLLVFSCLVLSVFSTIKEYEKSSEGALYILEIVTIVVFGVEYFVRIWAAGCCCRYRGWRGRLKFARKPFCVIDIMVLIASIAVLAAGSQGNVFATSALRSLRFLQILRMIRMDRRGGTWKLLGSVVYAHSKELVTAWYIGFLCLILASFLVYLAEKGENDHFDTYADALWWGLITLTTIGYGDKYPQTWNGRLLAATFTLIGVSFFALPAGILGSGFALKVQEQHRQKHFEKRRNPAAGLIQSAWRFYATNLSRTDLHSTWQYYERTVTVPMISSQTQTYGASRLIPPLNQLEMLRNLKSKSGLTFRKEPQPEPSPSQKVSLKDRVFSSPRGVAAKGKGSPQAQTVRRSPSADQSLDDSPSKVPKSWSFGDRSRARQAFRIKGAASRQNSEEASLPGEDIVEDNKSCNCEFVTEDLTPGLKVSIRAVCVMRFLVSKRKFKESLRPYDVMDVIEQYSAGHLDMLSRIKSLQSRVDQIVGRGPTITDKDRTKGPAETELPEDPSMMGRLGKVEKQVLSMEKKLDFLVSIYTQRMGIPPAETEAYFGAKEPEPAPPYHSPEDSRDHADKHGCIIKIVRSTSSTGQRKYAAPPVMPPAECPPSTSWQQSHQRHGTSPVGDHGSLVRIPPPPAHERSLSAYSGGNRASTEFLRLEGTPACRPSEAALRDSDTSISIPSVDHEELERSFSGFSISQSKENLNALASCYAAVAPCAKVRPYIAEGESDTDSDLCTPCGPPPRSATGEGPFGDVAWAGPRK
# KCNQ2 block baseline: also measured in KCNQ2 block; calls as there; B-score; measured here: initial fluorescence intensity artifact check;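 brightness before thallium and not channel activity; 0 = typical well and far values either way flag optical interference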
# An asterisk follows results filed as active; i = inactive. An excerpt. The share of hits here may be higher or lower than overall.
# Values in the order – KCNQ2 block	KCNQ2 block baseline
Cc1ccc(S(=O)(=O)CC(=O)Nc2nc3ccccc3s2)cc1
 : i	-1.09
Cc1ccc(Nc2nc(N)c([N+](=O)[O-])c(NCCO)n2)cc1
 : i	1.11
CCC(C)(C)n1nnnc1C(c1ccccc1)N1CCc2ccccc2C1 (stereo not given)
 : i	0.43
COc1ccc(/C=C(/NC(=O)c2ccc(Br)cc2)C(=O)N2CCOCC2)cc1
 : i	0.96
CCOC(=O)C(=N/O)/C(C)=N/NC(=O)C(=O)Nc1cc(Cl)ccc1Cl
 : i	0.52
Cc1ccc(Nc2nc(Oc3ccc(OCc4ccccc4)nn3)nc(N3CCOCC3)n2)cc1
 : i	0.87
C=C1CCN([C@@H](CC(C)C)C(=O)NCCC(C)C)S(=O)(=O)c2ccccc21
 : i	-1.44
COc1ccc(OC)c(-n2c(SCC(C)=O)nnc2-c2cccc(S(=O)(=O)N(C)C)c2)c1
 : i	0.69
COc1cccc(-n2nnnc2SCC(=O)NCc2ccc3c(c2)OCO3)c1
 : i	-1.86
CSc1ccc(/C=N/Nc2nc(C)cc(C)n2)cc1
 : i	0.68
O=C(Nc1ccccc1Br)c1ccccc1-c1ccccc1
 : i	-1.55
C=CCn1c(=O)c2ccccc2n2c(SCC(=O)Nc3cc(C)on3)nnc12
 : i	-0.26
O=C(c1ccccc1)c1cc([N+](=O)[O-])ccc1N1CCOCC1
 : i	-0.94
O=C(C1CC(=O)N(c2ccc(Cl)cc2)C1)N1CCOCC1 (stereo not given)
 : i	1.01
C=CCNS(=O)(=O)c1nc(C)c(Cl)c(C)c1C#N
 : i	-0.13
Cc1nc2scc(C)n2c(=O)c1S(=O)(=O)NCc1ccccc1
 : i	-1.94
O=C(N/N=C1/CC2CCC1C2)c1cc2ccccc2cc1O (stereo not given)
 : i	-0.01
COc1ccc(NS(=O)(=O)c2ccc(NC(=O)C3CC3)cc2)cc1
 : i	-1.59
Cc1cccc(C(=O)NNC(=O)c2ccccc2-n2cccc2)c1
 : i	0.1
CCNC(=O)C(=O)Nc1ccc(OC)c(Cl)c1
 : i	1.34
O=Cc1ccccc1OCCCOc1cccc2cccnc12
 : i	-0.68
COc1ccccc1NC(=S)N1CCn2cccc2C1c1cccnc1 (stereo not given)
 : i	0.69
COCCNC(=O)C1CC(c2cccc([N+](=O)[O-])c2)=NO1 (stereo not given)
 : i	1.6
CCC(CC)c1nnc(NC(=O)c2ccc3ccccc3n2)s1
 : i	0.08
COc1ccc(N(C)C(=O)Nc2ccc3c(c2)nnn3C)cc1
 : i	-0.55
CCOc1ccc(S(=O)(=O)NCCCn2ccnc2)cc1NC(C)=O
 : i	2.26
Cc1nc(=O)c(-c2ccccc2)c(C)n1-c1cccc(C(=O)O)c1
 : i	1.73
O=C(C(=O)N1CCc2ccccc2C1)c1cn(CC(=O)N2CCCCC2)c2ccccc12
 : i	-1.8
CC(=O)N1CCN(S(=O)(=O)c2ccc(S(=O)(=O)NCC(C)C)cc2)CC1
 : i	0.58
COc1ccccc1OCCCn1c(=O)oc2ccc(C)cc21
 : i	-0.01
O=C(CCNC(=O)c1ccccc1)OCC(=O)c1ccccc1
 : i	-1.6
COc1cc2nc(C3CCC3)n(N)c(=O)c2cc1OC
 : i	0.07
COc1cccc(OC)c1OCCCOc1ccc([N+](=O)[O-])cc1Cl
 : i	0.6
COc1cc(S(=O)(=O)Nc2cccc3cn[nH]c23)c(OC)cc1Cl
 : i	-1.09
CCOC(=O)CN1C(=O)/C(=C/c2ccccc2Br)Oc2ccccc21
 : i	-0.14
COc1cc(C(=O)OCC(=O)NC(C)CCc2ccccc2)cc(OC)c1OC (stereo not given)
 : i	0.41
CCc1ccc(/C=N/n2c(C)cc(C)c(C#N)c2=O)cc1
 : i	0.03
O=C(O)/C=C\C(=O)Nc1ccccc1N1CCN(c2ccccc2)CC1
 : i	-0.62
COCc1ccc(CN2CCCC(C(=O)Nc3ccc(-c4cccc(OC)c4)cc3)C2)o1 (stereo not given)
 : i	0.05
O=C(O)CSC(=S)N1CCCCC1
 : i	1.52
O=C(CC1C(=O)NCCN1Cc1c(F)cccc1Cl)NCCCN1CCCC1=O (stereo not given)
 : i	-0.11
CC1=C(C(=O)OC2CCCCCCC2)C(c2cc3c(cc2Br)OCO3)CC(=O)N1 (stereo not given)
 : i	0.09
O=C(O)C1C2CCC(C2)C1C(=O)Nc1cc(F)ccc1F (stereo not given)
 : i	0.79
CCN(CC)CC(=O)Nc1ccc(/C(C)=N/NC2=NCCN2)cc1
 : i	1.98
O=C(c1ccc2c(=O)n3c(nc2c1)CCCCC3)N1CCN(c2ccc([N+](=O)[O-])cc2)CC1
 : i	1.69
COc1ccc(OCc2cc(C(=O)N3CCC(c4ccccc4)CC3)no2)c(Cl)c1
 : i	-0.99
Cc1ccc2nc(CCc3nc4ccc(C)cc4o3)oc2c1
 : i	1.2
CSc1nc2ccc(NC(=O)c3ccc(F)c(F)c3)cc2s1
 : i	0.81
Cc1ccc(C(=O)Nc2ccccc2C(=O)O)cc1S(=O)(=O)NCc1ccccc1
 : i	1.03
O=C(COC(=O)CN1C(=O)COc2ccccc21)NCc1ccc(F)cc1
 : i	0.92

# The list goes on:
# Values in the order – KCNQ2 block	KCNQ2 block baseline
COCCCN(Cc1cccs1)S(=O)(=O)c1csc(C(N)=O)c1
 : i	-0.72
Cc1cc(C)c(NC(=O)CNC(=O)CN2C(=O)NC3(CCCc4ccccc43)C2=O)c(C)c1 (stereo not given)
 : i	1.6
CSc1nnc(-c2ccccc2N=Cc2c(C)[nH]n(-c3ccc4ccccc4c3)c2=O)c(=O)[nH]1
 : i	-1.06
CCn1c(SC/C=C/c2ccccc2)nnc1-c1cccs1
 : i	1.59
CCOC(=O)c1sc(N(C)C(C)=O)nc1C
 : i	1.52
NS(=O)(=O)c1ccc(CCNC(=O)c2cc3ccccc3s2)cc1
 : i	1.18
CCCSC1=N/C(=C\c2ccsc2)C(=O)S1
 : i	-0.48
O=C(Nc1ccccc1Cl)C1Cc2ccccc2O/C1=N\O (stereo not given)
 : i	-1.15
CC(=O)c1sc(-c2ccccc2Cl)nc1C
 : i	2.05
Cc1ccc(O)c(-c2cc(C(=O)NCc3ccccc3)[nH]n2)c1
 : i	-0.3

# Already shown: entries from further up.
# Values in the order – KCNQ2 block	KCNQ2 block baseline
CSc1nnc(-c2ccccc2N=Cc2c(C)[nH]n(-c3ccc4ccccc4c3)c2=O)c(=O)[nH]1
 : i	-1.06
CCn1c(SC/C=C/c2ccccc2)nnc1-c1cccs1
 : i	1.59
CCOC(=O)c1sc(N(C)C(C)=O)nc1C
 : i	1.52
NS(=O)(=O)c1ccc(CCNC(=O)c2cc3ccccc3s2)cc1
 : i	1.18
CCCSC1=N/C(=C\c2ccsc2)C(=O)S1
 : i	-0.48
O=C(Nc1ccccc1Cl)C1Cc2ccccc2O/C1=N\O (stereo not given)
 : i	-1.15

# (further entries)
# Values in the order – KCNQ2 block	KCNQ2 block baseline
NNC(=O)c1csc(-c2ncc(C(F)(F)F)cc2Cl)n1
 : i	0.01
O=C(COc1ccccc1)Nc1ccc2oc(=O)ccc2c1
 : i	0.82
CCOc1ccc2c(c1)/C(=C(\C(Cl)=C(Cl)Cl)[N+](=O)[O-])N2
 : i	5.6
[O-]/[N+](=C/c1cccnc1)c1ccc(Br)cc1
 : i	-0.68
COc1cccc(NC(=O)Cn2cnc3sc(C)c(S(=O)(=O)N4CCN(C)CC4)c3c2=O)c1
 : i	0.01
O=C(NC1CC1)c1cc(F)c(F)cc1Cl
 : i	-0.8
CCOc1ccc2nc(NC(=O)C3CCCN(S(=O)(=O)c4cccs4)C3)sc2c1 (stereo not given)
 : i	-0.24
CC1CCC(NC(=O)c2ccc3snnc3c2)CC1 (stereo not given)
 : i	-1.05
COc1ccccc1N1CCN(C(=O)CSc2nc3ccccc3c(=O)n2CC2CCCO2)CC1 (stereo not given)
 : i	-1.11
CCN(CC)CC(=O)Nc1sc(C)c(C)c1C(=O)c1ccc(C)cc1
 : -6.61*	-1.44*

# Pulled by compound from above:
# Values in the order – KCNQ2 block	KCNQ2 block baseline
O=C(NC1CC1)c1cc(F)c(F)cc1Cl
 : i	-0.8
COc1ccccc1N1CCN(C(=O)CSc2nc3ccccc3c(=O)n2CC2CCCO2)CC1 (stereo not given)
 : i	-1.11

# (further entries)
# Values in the order – KCNQ2 block	KCNQ2 block baseline
CCc1nc2c(c(=O)c3ccccc3n2C)c(=O)n1CCc1ccc(OC)cc1
 : i	-0.49
O=C1CCN(Cc2ccc(O)cc2)CCN1CCO
 : i	-0.99
O=C(c1ccc(Cl)c(Cl)c1)N1CCC(=O)N(C(COCc2cccc(Cl)c2)Cc2ccccc2)CC1 (stereo not given)
 : -6.19*	-1.37*
Clc1ccc2nc(CN3CCCc4ccccc43)cn2c1
 : i	-2.11
Cn1nc(C(C)(C)C)c([N+](=O)[O-])c1C(=O)NC1CCCCC1
 : i	-0.14
CCCNC(=O)Cn1cccc1C(=O)c1ccccc1
 : i	1.06
Cn1nnc2cc(C(=O)N3CCN(c4ccccn4)CC3)ccc21
 : i	-0.01
O=C(NCc1ccccc1)C1CC(=O)N(C2CCCCC2)C1 (stereo not given)
 : i	0.27
O=C(Oc1ccc2c(c1)OCC2=O)c1ccc(Cl)cc1
 : i	-2.73
O=S1(=O)CCOC[C@H](c2ccccc2)N1Cc1cccc(Cl)c1
 : i	0.04
CCOC(=O)C1(Cc2ccccc2C)CCCN(C(=O)c2ccc(CSC)o2)C1 (stereo not given)
 : i	-1.82
Cc1c(C(c2cc3c(cc2Br)OCO3)c2c(C)n(C)n(-c3ccccc3)c2=O)c(=O)n(-c2ccccc2)n1C
 : i	-1.6
COc1ccc(C(=O)/C=C/c2ccc(O)cc2)cc1
 : i	1.43
Cc1cc(OCc2nnc(SC(C)C(=O)O)n2Cc2ccccc2)ccc1Cl (stereo not given)
 : i	-0.89
Cc1ccc(-n2c(SCC(=O)NCc3ccco3)nnc2-c2cccnc2)cc1
 : i	-0.94
[O-][n+]1c2ccccc2c2n1CCCN=C2c1ccc(Cl)cc1
 : i	-0.05
CCn1c(SCC(=O)Nc2nc(C)c(C)s2)nnc1-c1cccnc1
 : i	0.86
C=CCn1cnc2c(oc3ccccc32)c1=O
 : i	0.52
Cn1c(Cc2ccccc2)nnc1SCC(=O)N1CCN(c2ccccc2)CC1
 : i	0.54
CC1CCCCC1NS(=O)(=O)c1ccc(-n2cnnn2)cc1 (stereo not given)
 : i	-1.44
Cc1ccc(C)c2[nH]c(=O)c(C(c3nnnn3C3CCCC3)N3CCOCC3)cc12 (stereo not given)
 : -6.08*	-2.59*
CC(C)CCNC(=O)C(c1ccc(O)cc1)N(C(=O)C1COc2ccccc2O1)c1cccc(O)c1 (stereo not given)
 : i	-1.24
COc1ccc(C(CNC(=O)COc2ccccc2C#N)N2CCOCC2)cc1 (stereo not given)
 : i	0.98
Cc1ccc2nc(N3C(=O)C(O)=C(C(=O)c4ccco4)C3c3cccc(O)c3)sc2c1 (stereo not given)
 : i	-0.17
Cc1ccc(C)c(N(C(=O)CCC(=O)Nc2cc(C)on2)C(C(=O)NC2CCCC2)c2ccco2)c1 (stereo not given)
 : i	-0.11
Cc1cc2c(cc1C)CSC(c1ccccc1OC(=O)C(C)C)SC2
 : i	-0.73
CCC(C)(C)NC(=O)C(c1cccn1C)N(Cc1ccc(OC)cc1)C(=O)Cn1nnc2ccccc21 (stereo not given)
 : i	-0.01
CCN(CC)c1ccc(NC(=O)c2ccccc2Br)cc1S(=O)(=O)Nc1ccccc1OC
 : i	-0.03
COCCN1C(=O)C(CC(=O)Nc2ccccc2)SC1=Nc1ccc(OC)cc1 (stereo not given)
 : i	-1.35
CC(C)CC(=O)NC(NCC1CCCO1)C(Cl)(Cl)Cl (stereo not given)
 : i	2.02
c1ccc2[nH]c(CCCCc3nc4ccccc4[nH]3)nc2c1
 : i	0.39
C/C(=N\Nc1ccc(C(F)(F)F)cn1)c1ccc(S(=O)(=O)NCc2ccco2)cc1
 : i	-1.96
COC(=O)c1[nH]c2ccc(Cl)cc2c1NC(=O)CN1CCC(C(N)=O)CC1
 : i	0.19
CCC(=O)NC(NC(=S)Nc1ccccc1Br)C(Cl)(Cl)Cl (stereo not given)
 : i	0.09
COCCn1c(-c2ccc(OC)cc2)c(-c2ccc(OC)cc2)oc1=O
 : i	0.01
O=[N+]([O-])c1ccc(CSc2nnc(Cc3ccccc3)o2)cc1
 : i	-1.24
Cc1ccc(C2CC(c3ccccc3)=NN2c2ccccc2)o1 (stereo not given)
 : i	1.03
Clc1ccc(SCNc2ccccc2Cl)cc1
 : i	-0.13
CS(=O)(=O)N1CCC(Oc2cccc(C(=O)NCCCOc3cccnc3)c2)CC1
 : i	2.23
CCCS(=O)(=O)N1CCN(Cc2ccccc2C(F)(F)F)CC1
 : i	1.43
Cc1ccc(CCN2CC(C(=O)NCc3ccc4c(c3)OCO4)CC2=O)cc1 (stereo not given)
 : i	0.01
CCOC(=O)N1CCN(S(=O)(=O)Cc2ccccc2)CC1
 : i	1.66
O=Cc1c(F)cccc1N1CCCC1
 : i	1
O=C(NC1(C(F)(F)F)NC(=O)N(Cc2ccccc2)C1=O)c1cccnc1 (stereo not given)
 : i	-0.93
O=c1oc2ccccc2nc1/C=C(O)/C=C\c1ccccc1
 : i	0.92
Cc1nn(-c2ccccc2)c(N)c1Sc1ccc([N+](=O)[O-])cc1
 : i	0.31
CCn1c(SCC(=O)Nc2ccccc2)nc2nc3c(cc2c1=O)COC(C)(C)C3
 : i	-0.93
O=C(O)C1CCN(C(=O)c2ccc(Cl)cc2)CC1
 : i	0.17
COc1ccc(CNC(=O)CSc2ncn[nH]2)cc1OC
 : i	0.22
COc1ccc(N2C(=O)CC(Nc3ccc(F)cc3)C2=O)c([N+](=O)[O-])c1 (stereo not given)
 : i	-0.44
COc1cc([N+](=O)[O-])ccc1N1C(=O)C2C3C=CC(C4CC34)C2C1=O (stereo not given)
 : i	1.44
